FGF22 binding: shifts melting point of recombinant human FGF22; AID 651658; hit rate 1.5% among 340,000; Q9HCT0; recombinant FGF22 thermal shift, SYPRO orange fluorescence; percent of sucrose octasulfate shift, DMSO zero; calls only at 9.99 µM;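 active = melting point raised past a set limit in the mean and every replicate; three in four hits are not shown here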
HNF4A DNA FP: change in binding of human HNF4 alpha to DNA | P41235 | HNF4a-FITC DNA binding, fluorescence polarization, 1 h | activity change, % at 10 µM | hit rate 0.3% among 360,000; in the data active = activity change above about 30%, passing the limit was not always enough;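 also: controls were the assay level and a saturating level of protein; the project sought stronger binding though the title names inhibitors; some compounds called inactive have numbers as strong as hits; positive values seem to mean higher polarization but the record does not say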
E coli growth: inhibitors of Escherichia coli growth | OD600 absorbance (no concentration beside the values) | OD600, 23 h; hits give low values | hit rate 0.21% among 330,000 | AID 1053175;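 active = OD600 absorbance below the run mean of sample wells minus 3.6 SD, in any replicate, cut at about 0.56 in these data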;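 also: stock transfer was 300 nL into about 60 µL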
UCH37 DUB inh: human UCH37 deubiquitinating enzyme inhibition. inhibition, % (no concentration beside the values). purified proteasome/UCH37, Ub-AMC cleavage fluorescence. hit rate 0.33% among 330,000;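 active = mean of two replicates above 20%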;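 also: 0% = compound-free wells with enzyme and 100% = wells lacking proteasome; stock transfer was 100 nL into about 20 µL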
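Material: Human UCH37 enzyme supplied as purified proteasome complex | Schedule: 30 min compound-proteasome preincubation then 25 min substrate reaction, room temperature | Detection: AMC fluorescence from Ub-AMC cleavage, excitation 355 nm, emission 460 nm | Benchmarks: Wells without proteasome as full block, compound-free enzyme plus substrate as uninhibited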
ALR inh: inhibitors of human sulfhydryl oxidase ALR; hit rate 3.8% among 290,000; inhibition, % (no concentration beside the values); P55789; purified ALR, DTT oxidation, H2O2 HRP-luminol luminescence;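 active = mean and each replicate at 75% or more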;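 also: stock transfer was 7.5 nL into about 7.5 µL; 0% = neutral wells and 100% = wells with inactivated enzyme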
LANA-H2A inh: blocks KSHV LANA binding to histone H2A/H2B | Q9QR71 | cell-free LANA-H2A/H2B peptide, fluorescence polarization | inhibition, % (no concentration beside the values) | hit rate 0.6% among 320,000; in the data active = inhibition mostly above about 10%, no sharp cut-off; inactive = mostly below about 6.7%;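 also: stock transfer was 7.5 nL into about 10 µL; 0% = median of vehicle wells and 100% = median of positive control wells; one replicate is shown; the record names a cut of 25% in any replicate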
Target sequence (Q9QR71 whole entry, looked up): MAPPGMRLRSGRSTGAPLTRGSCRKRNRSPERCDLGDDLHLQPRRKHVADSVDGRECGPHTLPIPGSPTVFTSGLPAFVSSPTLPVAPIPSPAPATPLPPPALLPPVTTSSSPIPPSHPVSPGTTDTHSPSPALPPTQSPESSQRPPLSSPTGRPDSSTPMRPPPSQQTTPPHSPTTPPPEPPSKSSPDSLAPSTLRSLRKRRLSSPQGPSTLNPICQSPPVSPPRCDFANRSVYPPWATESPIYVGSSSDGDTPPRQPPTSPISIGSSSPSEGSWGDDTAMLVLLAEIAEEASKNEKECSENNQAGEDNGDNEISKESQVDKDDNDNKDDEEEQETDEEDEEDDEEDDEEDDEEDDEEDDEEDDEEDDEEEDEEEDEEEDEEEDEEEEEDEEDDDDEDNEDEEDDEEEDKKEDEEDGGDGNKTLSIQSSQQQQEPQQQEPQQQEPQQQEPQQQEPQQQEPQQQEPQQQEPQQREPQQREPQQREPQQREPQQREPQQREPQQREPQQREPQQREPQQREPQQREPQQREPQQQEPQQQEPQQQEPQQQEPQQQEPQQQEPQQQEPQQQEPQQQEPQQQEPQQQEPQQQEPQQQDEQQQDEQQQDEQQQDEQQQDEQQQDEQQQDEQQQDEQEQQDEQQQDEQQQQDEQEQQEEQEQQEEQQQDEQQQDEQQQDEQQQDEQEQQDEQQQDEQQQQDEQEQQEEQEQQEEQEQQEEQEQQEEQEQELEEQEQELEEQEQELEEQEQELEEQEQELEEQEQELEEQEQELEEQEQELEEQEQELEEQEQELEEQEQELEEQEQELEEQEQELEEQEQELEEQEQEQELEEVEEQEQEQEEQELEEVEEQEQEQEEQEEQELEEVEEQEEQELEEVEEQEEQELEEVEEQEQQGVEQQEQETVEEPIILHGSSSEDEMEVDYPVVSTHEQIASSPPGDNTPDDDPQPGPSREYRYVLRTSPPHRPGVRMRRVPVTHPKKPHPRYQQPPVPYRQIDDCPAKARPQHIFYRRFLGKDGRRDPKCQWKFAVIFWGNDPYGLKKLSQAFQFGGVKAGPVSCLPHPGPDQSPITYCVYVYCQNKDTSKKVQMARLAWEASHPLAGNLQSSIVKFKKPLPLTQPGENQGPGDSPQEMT
B2AR ag: human beta-2 adrenergic receptor agonism by FAP | P07550 | Am2.2-beta2AR cells, FAP receptor internalization, flow cytometry; reference of the scale not given here | response, % (concentration not given with the values) | hit rate 0.43% among 340,000;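 active = response above a set limit, near 3 SD of response in nonfluorescent compounds, cut at about 42% in these data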;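 also: stock transfer was 100 nL into about 11 µL; a reference agonist was the positive control; negative values mostly stem from fluorescent compounds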
The depositor's hits bear a star; i = inactive; · = no result given; + = active, no number.

Order of values: FGF22 binding | HNF4A DNA FP | E coli growth | UCH37 DUB inh | ALR inh | LANA-H2A inh | B2AR ag
CCOc1ccc(Nc2nc(Cl)nc(N3CCN(c4ccc(OC)cc4)CC3)n2)cc1
    i | 3.8 | 0.73 | 1.6 | · | -3.6 | -2
Cc1ccc(NC(=O)[C@H](NC(=O)[C@@H]2Cc3ccccc3CN2)c2ccccc2)c(C)c1
    i | 1.7 | 0.7 | 0.9 | -18 | -0.5 | 5
COc1ccc(C)cc1NC(=O)C(Sc1nnc(-c2ccncc2)n1-c1ccc(Cl)cc1)c1ccccc1 (stereo unspecified)
    i | 0.2 | 0.75 | 5.0 | -30 | 5.7 | 12
CN(CCCNC(=O)c1cccn2c(=O)c3ccccc3nc12)Cc1ccccc1
    · | -0.8 | 0.62 | -48 | -2 | 3.5 | 6
CC(=O)Nc1ccc(S(=O)(=O)Nc2ccccc2N2CCOCC2)cc1
    i | -2.0 | 0.67 | 2.4 | · | -6.9 | 0
Cc1ccc(N2CN=c3s/c(=C\c4cccnc4)c(=O)n3C2)cc1
    · | 0.6 | · | · | -10 | 3.4 | -5
NC(=O)C1CCN(C(=O)c2cccc(S(=O)(=O)N3CCc4ccccc4C3)c2)CC1
    i | -2.2 | 0.65 | 0.6 | 3 | 8.5 | 1
CCOC(=O)Cc1csc(NS(=O)(=O)c2ccc(OC)cc2)n1
    i | 1.5 | 0.69 | 1.4 | -4 | -2.2 | -4
COc1cccc(NC(=O)c2ccc(S(=O)(=O)N(C)C)cc2)c1
    i | -2.8 | 0.62 | 3.8 | -18 | -2.8 | 6
CCOC(=O)N1CCN(S(=O)(=O)c2ccc(C(=O)N(CCCN(C)C)c3nc4c(F)cc(F)cc4s3)cc2)CC1
    i | 0.6 | 0.64 | 4.3 | -8 | -3.6 | 8
COc1ccc(Cn2c(-c3ccc(Br)cc3)c[n+]3ccccc23)cc1
    i | 1.3 | 0.64 | 2.5 | -19 | -2.0 | 3
C[C@H]1CN([C@@H](C)CO)C(=O)Cc2cc(NC(=O)CCC(F)(F)F)ccc2O[C@H]1CN(C)Cc1ccc(-c2ccccc2)cc1
    i | -2.4 | · | 0.9 | -3 | 1.4 | -2
CCOc1ccc(/C(O)=C2/C(=O)C(=O)N(CC3CCCO3)C2c2ccco2)cc1 (stereo unspecified)
    · | 1.8 | 0.71 | 9.2 | · | 0.5 | 1
COC(=O)c1ccc2ncccc2c1
    · | -0.8 | 0.66 | -1.3 | 5 | 7.3 | -4
NS(=O)(=O)c1ccc(CCNC(=O)COC(=O)C2COc3ccccc3O2)cc1 (stereo unspecified)
    i | -2.5 | 0.67 | 3.2 | -13 | 2.7 | 0
Cc1ccc(S(=O)(=O)NC(CC(C)C)C(=O)N2CC(C)OC(C)C2)cc1 (stereo unspecified)
    i | 0.9 | 0.7 | 1.1 | 3 | 0.9 | -4
Cc1cccc(NC(=O)c2c(C)nn(-c3ccccc3)c2Cl)c1
    i | -0.4 | 0.68 | 5.9 | -11 | -0.3 | -2
Cc1ccc(NC(=O)c2ccc(S(=O)(=O)N3CCCCC3)cc2)cc1
    · | -1.5 | 0.73 | -0.1 | · | · | 8
Cc1cc(F)ccc1S(=O)(=O)N(C(=O)c1ccncc1)c1ccc(OC(=O)c2ccncc2)cc1
    i | -0.6 | 0.66 | 1.2 | 2 | 2.8 | -2
Cc1cc(NC(=O)COn2nnc3ccc(S(C)(=O)=O)cc32)ccc1Br
    i | 2.2 | 0.67 | 4.3 | 5 | 1.1 | 6
CC(=O)c1cccc(NC(=O)NC(C)C2CCCO2)c1 (stereo unspecified)
    · | 2.4 | 0.71 | 0.4 | -3 | 4.8 | -2
COc1cc(C(=O)N2CCN(Cc3ccccc3C(F)(F)F)CC2)cc(OC)c1OC
    · | -0.1 | 0.66 | 1.7 | -5 | 0.9 | 15
O=C(N/N=C/CCc1ccccc1)C1CCCCC1
    i | -2.5 | · | · | 0 | -16 | 5
COc1ccc(-c2ccc3nnc(SCC(=O)Nc4ccc(NC(C)=O)cc4)n3n2)cc1
    i | 0.6 | 0.68 | 2.7 | -3 | -7.1 | 32
CC(=O)Nc1ccc(S(=O)(=O)N2CCN=C2SCc2cccc(C)c2)cc1
    i | 3.4 | 0.72 | -0.1 | 5 | -4.5 | -2
CC(NC(=O)NC1CCCCC1)c1ccc2c(c1)OCO2 (stereo unspecified)
    i | 2.6 | 0.7 | 3.9 | 1 | 9.5 | -28
CC(C)(C)n1nnnc1C(c1ccncc1)N1CCN(C2CCCCC2)CC1 (stereo unspecified)
    i | 0.3 | 0.67 | 4.3 | -3 | -1.4 | -7
CN(Cc1ccccc1)C(=O)c1cccc(NC(=O)Cc2ccc(NC(=O)C3CCN(C(=O)C4CCCCC4)CC3)cc2)c1
    i | -4.0 | 0.69 | -0.1 | · | · | -7
O=C1c2cccc3c([N+](=O)[O-])c(O)cc(c23)C(=O)N1Nc1ccccc1
    i | -1.8 | 0.7 | 13 | 38 | 0.5 | 9
C=CCOc1cccc(/C=N/NC(=O)CN2CCCCC2)c1
    i | 0.0 | · | · | 0 | -5.1 | -11
Cc1ccc(C(c2nnnn2CC2CCCO2)N2CCN(Cc3ccccc3)CC2)cc1 (stereo unspecified)
    · | 0.8 | 0.68 | -1.0 | -26 | 8.4 | 6
COc1ccc(NC(=O)NC2CC3CCCC(C2)N3Cc2ccccc2)cc1 (stereo unspecified)
    · | -1.7 | 0.69 | 2.2 | · | 5.6 | -5
CC(NC(=O)C1CCC(=O)N1Cc1ccc(F)cc1)c1ccc2c(c1)OCCO2 (stereo unspecified)
    i | -5.2 | 0.75 | 3.8 | -20 | 0.9 | 1
Cc1ccc(S(=O)(=O)c2c(C)c(C)c(C)[nH]c2=O)cc1
    i | -1.9 | 0.67 | -0.8 | · | -1.9 | -3
O=c1c2[nH]c3ccccc3c2ncn1CCCn1ccnc1
    · | 2.9 | 0.71 | -3.5 | 7 | -3.4 | -13
O=C(N/N=C/c1ccccc1F)c1cc2c(ccc3ccccc32)o1
    i | 39* | · | · | -9 | 3.4 | 6
O=C(CSc1ccc2nnc(-c3cccc(F)c3)n2n1)NCc1ccco1
    i | -0.8 | 0.7 | -2.5 | 0 | 3.8 | -4
COC(=O)c1ccc2[nH]cc(CCO)c2c1
    i | 1.4 | 0.71 | 1.7 | -4 | 8.7 | -2
C=CCNCCCCOc1c(Cl)cc(C)cc1Br
    · | 3.0 | 0.65 | 0.5 | -4 | 4.5 | -1
COc1ccc(CCNC(=O)CCc2ccccc2O)cc1OC
    i | -0.1 | 0.72 | 2.2 | · | · | 1
CC(Oc1ccc(F)cc1)C(=O)/C=C\N(C)C (stereo unspecified)
    · | 0.7 | 0.68 | 6.3 | 13 | -1.2 | 0
O=C(O)C1C2CCC(O2)C1C(=O)NCc1ccncc1 (stereo unspecified)
    · | 0.4 | 0.76 | -0.9 | -5 | 2.3 | 0
CC(C)N1CCC(N2CCN(Cc3cccc4nonc34)CC2CCO)CC1 (stereo unspecified)
    i | 1.3 | 0.67 | 4.6 | -3 | 8.3 | 3
CN1CCN(C(=S)SCC(=O)Nc2nc(-c3ccccc3)c(-c3ccccc3)o2)CC1
    · | -1.6 | 0.72 | -2.9 | · | · | -8
CCOC(=O)Cc1csc(NC(=O)/C=C/c2ccco2)n1
    i | 1.8 | 0.7 | 14 | -5 | -1.6 | -4
CCOCCCNC(=O)c1cc2sc(Cl)cc2n1CC
    i | -5.0 | 0.73 | 5.9 | 6 | 0.8 | -11
N/C(=N\OC(=O)CCCc1ccccc1)c1ccccc1
    i | -0.2 | 0.68 | -1.3 | 2 | 2.9 | -3
COc1cc(S(=O)(=O)N2CCC(c3nc4ccccc4s3)CC2)ccc1S(=O)(=O)NC1CCCC1
    i | 1.5 | 0.71 | -3.3 | -7 | -10 | 2
CC(C)[C@H](NC(=O)c1ccccc1F)C(=O)NC1CCCCC1
    i | 0.5 | 0.69 | -0.6 | 2 | -1.4 | 4
Cc1cccc(-c2noc(CN(C)C(=O)c3ccco3)n2)c1
    · | 3.8 | 0.72 | 1.7 | -3 | -3.9 | 0
FC(F)(F)c1cc(-c2ccco2)nc(-n2nc(C(F)(F)F)cc2C2CC2)n1
    · | 4.3 | 0.74 | -12 | -4 | -7.9 | -14
O=C(NNS(=O)(=O)c1ccc(Cl)cc1)c1sccc1-n1cccc1
    · | 5.7 | 0.69 | 2.5 | 46 | 1.4 | 6
CCOC(=O)Cn1cnc2sc3c(c2c1=O)CCC3
    · | 0.1 | 0.72 | 3.7 | -7 | -0.1 | -7
COc1ccccc1C(CNC(=O)c1ccc(NS(=O)(=O)c2ccc(F)c(C)c2)cc1)N(C)C (stereo unspecified)
    i | -2.1 | 0.68 | 2.1 | 5 | -10 | 0
Cc1c(NS(=O)(=O)c2cc([N+](=O)[O-])ccc2Cl)c(=O)n(-c2ccccc2)n1C
    i | -7.7 | 0.68 | 1.5 | -7 | 1.5 | -13
Cc1ccc(CCNS(=O)(=O)c2ccc3c(c2)N(C)CCO3)cc1
    i | -2.8 | 0.68 | -2.8 | 4 | -1.5 | 3
COc1ccc(/C=N/NC(=O)c2ccc(NS(=O)(=O)c3cccs3)cc2)cc1
    + | 9.4 | · | · | 14 | 1.0 | 10
CCOC(=O)c1ccc(-c2c(C)cc3oc(=O)cc(-c4ccccc4)c3c2C)cc1
    i | 2.1 | 0.74 | 1.4 | · | · | 10
Cc1ccc(N2N=C(c3ccc(F)cc3)CC2c2ccco2)cc1 (stereo unspecified)
    i | -1.8 | 0.67 | i | -18 | -6.9 | 33
N#C/C(=C\c1ccc(-c2ccccc2[N+](=O)[O-])o1)C(N)=O
    i | -3.0 | 0.73 | -0.5 | -29 | 4.0 | -2

Additional results.
Order of values: FGF22 binding | HNF4A DNA FP | E coli growth | UCH37 DUB inh | ALR inh | LANA-H2A inh | B2AR ag
CCCCn1nc2cc(C(=O)NCC3CC3)ccc2c1OCC
    i | 3.9 | 0.67 | -101 | -11 | -1.5 | 7
COc1ccc(NC(=O)CSc2ccc3c(c2)OCCO3)cc1OC
    · | -1.8 | 0.7 | 2.1 | 0 | -2.5 | -1
O=C(Nc1ccc(F)cc1F)c1cc2nc3c(c(C(F)(F)F)n2n1)CCCC3
    · | 0.7 | 0.72 | -73 | -3 | -3.5 | -3
CCn1c(N)[n+](CC(=O)Nc2ccc(SC(F)F)cc2)c2ccccc21
    i | -0.6 | 0.62 | 4.5 | 89* | -4.1 | 11
CCCCc1nc(N2CCN(C(=O)c3ccco3)CC2)c(C#N)c2c1CCCC2
    i | -0.3 | 0.63 | -44 | 0 | 4.2 | 9
COc1cccc(NC(=O)CN2C(=O)COc3ccc(S(=O)(=O)N4CCCCCC4)cc32)c1
    i | -1.3 | 0.7 | 4.0 | -4 | -2.8 | 9
CCN1CCCC1CN(Cc1cc2ccc(C)cc2[nH]c1=O)C(=S)Nc1ccc(OC)cc1 (stereo unspecified)
    · | 0.8 | 0.68 | 0.8 | 2 | 0.4 | 2
COc1cccc(OCCN2CCN(c3ncnc4c3cnn4-c3ccccc3)CC2)c1
    · | 3.8 | 0.71 | -1.6 | 6 | -2.2 | 7
Cc1ccc(C)c(OCCOCCN2CCOCC2)c1
    · | -0.4 | 0.66 | 0.4 | -2 | -4.8 | 6

Single records (already shown). Screens in order: FGF22 binding	HNF4A DNA FP	E coli growth	UCH37 DUB inh	ALR inh	LANA-H2A inh	B2AR ag
Cc1ccc(S(=O)(=O)NC(CC(C)C)C(=O)N2CC(C)OC(C)C2)cc1 (stereo unspecified) is entered as i	0.9	0.7	1.1	3	0.9	-4
CCOc1ccc(/C(O)=C2/C(=O)C(=O)N(CC3CCCO3)C2c2ccco2)cc1 (stereo unspecified) is entered as ·	1.8	0.71	9.2	·	0.5	1
COc1ccc(C)cc1NC(=O)C(Sc1nnc(-c2ccncc2)n1-c1ccc(Cl)cc1)c1ccccc1 (stereo unspecified) is entered as i	0.2	0.75	5.0	-30	5.7	12

Screens: PubChem, several laboratories

Only part of the results is shown; rates above refer to the full screens.
